HNF4A DNA FP – change in binding of human HNF4 alpha to DNA; P41235; HNF4a-FITC DNA binding, fluorescence polarization, 1 h; activity change, % at 10 µM; 360,000 compounds, 0.3% hits; AID 1224865; in the data active = activity change above about 30%, passing the limit was not always enough;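 also: controls were the assay level and a saturating level of protein; the project sought stronger binding though the title names inhibitors; some compounds called inactive have numbers as strong as hits; positive values seem to mean higher polarization but the record does not say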
Target sequence (P41235 whole entry, looked up): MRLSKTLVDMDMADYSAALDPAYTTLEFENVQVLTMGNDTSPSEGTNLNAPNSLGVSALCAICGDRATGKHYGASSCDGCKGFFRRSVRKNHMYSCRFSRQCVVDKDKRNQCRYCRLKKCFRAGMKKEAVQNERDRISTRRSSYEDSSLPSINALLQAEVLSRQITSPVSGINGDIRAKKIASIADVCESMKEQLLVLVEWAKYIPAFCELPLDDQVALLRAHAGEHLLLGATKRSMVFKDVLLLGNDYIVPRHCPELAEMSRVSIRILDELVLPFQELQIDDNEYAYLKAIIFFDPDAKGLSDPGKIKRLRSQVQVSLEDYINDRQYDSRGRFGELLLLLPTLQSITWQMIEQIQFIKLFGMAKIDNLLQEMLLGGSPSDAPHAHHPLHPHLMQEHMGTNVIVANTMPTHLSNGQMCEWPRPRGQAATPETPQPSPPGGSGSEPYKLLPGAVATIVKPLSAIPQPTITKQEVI
LANA-H2B inh – blocks KSHV LANA binding to histone H2A/H2B | inhibition, % (no concentration beside the values) | AID 2629 | cell-free LANA-H2A/H2B peptide, fluorescence polarization | 320,000 compounds, 0.6% hits; in the data active = inhibition mostly above about 10%, no sharp cut-off; inactive = mostly below about 6.7%;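 also: stock transfer was 7.5 nL into about 10 µL; 0% = median of vehicle wells and 100% = median of positive control wells; one replicate is shown; the record names a cut of 25% in any replicate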
RanGTP-Impb inh – disruptors of Ran-importin-beta complex formation – biochemical, FRET, CFP-Ran, YFP-importin-beta, homogeneous, primary screen. cell-free CFP-Ran/YFP-importin-beta FRET ratio. inhibition, % (concentration not given with the values). 300,000 compounds, 1.1% hits. AID 2216;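 active = most replicates above 15%; inconclusive = exactly half above 15%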;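 also: 0% = DMSO wells and 100% = Ran loaded with GDP instead of GTP; wells of about 40 µL received 100 nL stock; the first replicate is given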
Beta2AR agonist – human beta-2 adrenergic receptor agonism by FAP. Am2.2-beta2AR cells, FAP receptor internalization, flow cytometry; reference of the scale not given here. response, % (concentration not given with the values). 340,000 compounds, 0.43% hits. AID 504454;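 active = response above a set limit, near 3 SD of response in nonfluorescent compounds, cut at about 42% in these data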;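 also: stock transfer was 100 nL into about 11 µL; a reference agonist was the positive control; negative values mostly stem from fluorescent compounds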
Target sequence (P07550 whole entry, looked up): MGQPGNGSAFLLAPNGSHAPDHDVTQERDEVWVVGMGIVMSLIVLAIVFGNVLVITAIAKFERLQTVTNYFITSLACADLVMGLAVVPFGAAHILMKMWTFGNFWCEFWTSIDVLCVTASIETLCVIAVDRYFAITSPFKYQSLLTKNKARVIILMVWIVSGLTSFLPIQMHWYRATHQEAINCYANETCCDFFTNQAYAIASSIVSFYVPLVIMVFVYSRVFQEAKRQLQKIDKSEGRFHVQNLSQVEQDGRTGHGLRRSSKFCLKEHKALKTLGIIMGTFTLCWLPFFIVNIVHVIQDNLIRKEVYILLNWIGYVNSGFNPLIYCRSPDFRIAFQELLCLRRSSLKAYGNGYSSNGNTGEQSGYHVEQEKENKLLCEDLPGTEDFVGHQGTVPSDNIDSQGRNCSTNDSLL
ALR H2O2 inh – inhibitors of human sulfhydryl oxidase ALR; 290,000 compounds, 3.8% hits; P55789; inhibition, % (concentration not given with the values); purified ALR, DTT oxidation, H2O2 HRP-luminol luminescence; AID 485317;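 active = mean and each replicate at 75% or more; inconclusive = only one of the two met; inactive = neither met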;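 also: stock transfer was 7.5 nL into about 7.5 µL; 0% = neutral wells and 100% = wells with inactivated enzyme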
Target sequence (P55789 whole entry, looked up): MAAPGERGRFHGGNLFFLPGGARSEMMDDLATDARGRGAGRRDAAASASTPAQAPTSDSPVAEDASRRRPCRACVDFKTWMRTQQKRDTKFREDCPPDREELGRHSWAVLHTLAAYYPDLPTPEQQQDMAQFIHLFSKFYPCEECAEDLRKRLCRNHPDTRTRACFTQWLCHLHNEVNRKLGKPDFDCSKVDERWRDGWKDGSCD
Vif A3G – HIV-1 Vif–A3G interaction blockers – biochemical, TR-FRET, GST-Vif 1-94, biotin-A3G peptide, dose response retest, primary screen (AID 1117319) | 260,000 compounds, 0.57% hits | TR-FRET GST-Vif / biotin-A3G peptide binding; higher % means a stronger effect; test concentration not given here; strong numbers were not always called active | one-dose inhibition, %; IC50 in µM for titrated hits;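 active = above the screen mean plus three standard deviations and confirmed in dose response; inconclusive = results disagree or hit not tested in dose response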;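 also: Vif residues 1-94 fused to GST binding biotinylated APOBEC3G peptide 110-148; 0% = full assay without inhibitor and 100% = GST in place of GST-Vif; retest series ran down from 100 µM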
Calb FLC – C. albicans growth modulation with fluconazole; 300,000 compounds, 0.57% hits; AID 1979; C. albicans CaCi-2 (fluconazole-resistant clinical isolate) + fluconazole, Alamar Blue growth, 48 h; growth inhibition, % (no concentration beside the values);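 active = most replicates above 75%; inconclusive = exactly half above 75%; inactive = most below 75%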;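 also: all wells also contain fluconazole at 8 µg/ml as a sub-toxic cotreatment; 0% = median of DMSO wells and 100% = median of geldanamycin control wells; wells of about 8 µL received 7.5 nL stock; the first replicate is given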
Numbers without * were called inactive; ? = inconclusive; · = not tested or not shown; & = joins results of further samples.

SMILES	HNF4A DNA FP	LANA-H2B inh	RanGTP-Impb inh	Beta2AR agonist	ALR H2O2 inh	Vif A3G	Calb FLC
C=CCNc1nc(N)c([N+](=O)[O-])c(NCc2ccccc2)n1	2.2	1.3	-0.6	-2	-16	·	1
Cc1cc(OCc2cn3cccnc3n2)ccc1Cl	-0.2	-3.4	0.2	-1	·	·	-1
CCn1c(SCC(=O)Nc2cc(NC(C)=O)ccc2OC)nnc1-c1cccnc1	-2.0	3.7	0.5	0	-8	13%	0
COc1cc(/C=C/C(=O)O)cc(S(=O)(=O)NNC(=O)c2cc(C)oc2C)c1OC	-5.1	5.2	·	-7	58	17%	·
Cc1cc(C)n(CC2CC(=O)N(c3ccccc3)C2=O)n1 (stereo not given)	-0.3	1.0	4.0	2	-6	-1%	24
NC(=O)NC(=O)COC(=O)CC12CC3CC(CC(C3)C1)C2	-6.1	-1.5	2.8	3	-2	-6%	1
Cc1ccc(OCC(=O)Nc2ccc(F)cc2)cc1	-2.8	-2.5	3.2	-3	-3	8%	-6
Cc1c(Cl)c(C(=O)NC2C3CC4CC(C3)CC2C4)nn1C (stereo not given)	-0.3	-5.6	-2.1	-22	-1	-2%	0
CC(Oc1ccc(F)cc1)C(=O)Nc1cc(S(=O)(=O)N2CCOCC2)ccc1N1CCCCC1 (stereo not given)	0.3	0.8	5.4	-1	-55	1%	-5
CCOC(=O)c1c(C)[nH]c(C(=O)OC/C(O)=C(\C#N)c2nc3ccccc3[nH]2)c1C	13	-3.2	·	4	-8	12%	·
C=CCn1c(C)cc(C(=O)COc2ncnc3sccc23)c1C	14	-1.8	6.1	4	9	27%	6
CCOC(=O)c1sc2ncn(C(C)C(=O)OCC)c(=O)c2c1C (stereo not given)	-0.7	4.7	-1.9	0	-1	5%	-1
C/C(CC(=O)NC1C2CC3CC(C2)CC1C3)=N\NC(=O)Cc1cccs1 (stereo not given)	1.1	4.0	?	-12	5	?	1
CN(C(=O)c1ccc(NC(=O)c2ccco2)cc1)c1ccccc1	-0.1	-2.8	-1.0	-13	-3	·	-1
CCc1ccccc1NC(=O)c1cc(-c2cccs2)on1	4.2	0.4	7.1	-3	·	·	-1
Cc1nc2sc3c(c2c(=O)n1NC(=O)CCBr)CCCC3	2.1	1.2	0.2	0	10	6%	1
COCCOC(=O)C1=C(N)OC2=C(C(=O)CC(C)(C)C2)C1c1ccncc1 (stereo not given)	-1.6	1.3	7.5	-5	1	-11%	3
O=C(CCC(=O)NNC(=S)Nc1ccccc1)NCc1ccccc1	-1.8	-1.6	0.2	0	48	4%	-3
CCN1CCN(C(=O)c2cc(S(=O)(=O)N3CCCCC3)ccc2Cl)CC1	2.9	-9.7	0.2	1	-4	·	-11
N#C/C(=C(/O)c1ccc([N+](=O)[O-])o1)c1nc2ccccc2[nH]1	-5.3	0.1	-1.4	23	·	-14%	3
Cc1cccc(C(=O)Oc2ccccc2/C=N/Nc2ccc([N+](=O)[O-])cc2)c1	9.5	·	·	12	-3	4%	·
O=C(Nc1ccc(N2CCN(Cc3ccccc3)CC2)cc1)c1cccnc1	-1.8	-3.0	1.7	6	5	12%	4
O=C(O)CSc1nnc(-c2ccccc2Br)n1-c1cccc(C(F)(F)F)c1	2.2	-3.3	0.0	-6	16	26%	21
CCC(C)(C)NC(=O)C1c2ccccc2Oc2ccccc21	2.4	11	0.1	1	-6	11%	-12
COc1ccc(CNC(=O)COC(=O)CCn2c(C)csc2=O)cc1OC	-1.7	3.0	3.3	5	-4	2%	6
O=C1CN(C(=O)CSc2nc3ccccc3c(=O)n2CCCN2CCOCC2)c2ccccc2N1	3.1	-3.1	-1.8	-6	-6	0%	3
O=C(/C=C/c1ccc(F)cc1)N1CCN(c2ccccn2)CC1	1.9	-0.8	-0.6	-2	-7	-2%	87*
COc1cccc(N(C(=O)Cc2cccs2)C(C(=O)NC2CCCC2)c2ccncc2)c1 (stereo not given)	-0.4	-2.2	-0.5	0	-1	·	3
COc1ccc(Cc2noc(CN3CCCC(OCc4ccccn4)C3)n2)cc1OC (stereo not given)	-0.7	-3.7	1.7	-3	-15	21%	-10
ON=C1CCCCCCCC1	1.2	·	·	9	·	-7%	·
O=C(Nc1ccc(OC(F)(F)F)cc1)c1n[nH]c(Cn2cncn2)n1	-1.0	3.7	-3.3	0	3	-3%	-10
COc1cccc(-c2nnc(N)o2)c1	-3.5	-1.2	2.0	2	-3	·	6
COc1ccc(C(=O)N2CCn3c2nc2ccccc23)cc1	3.6	-4.1	-3.1	-11	-7	-2%	2
Cc1ccc(C)c(S(=O)(=O)N2CCCCC2CCNC(=O)C(=O)NC2CCCC2)c1 (stereo not given)	2.9	1.2	1.6	-7	-6	3%	-3
CN(C(=O)CCNC(=O)Cn1cnc2ccccc2c1=O)c1ccc(Br)cc1	0.3	0.0	-2.4	5	-1	·	-6
CCN1CCN(C(=O)c2cc3sccc3n2CC(=O)c2ccccc2)CC1	-0.5	-2.3	0.2	-13	-9	29%	-23

Record cards, from the list above. Values in the order: HNF4A DNA FP | LANA-H2B inh | RanGTP-Impb inh | Beta2AR agonist | ALR H2O2 inh | Vif A3G | Calb FLC
`Cc1cccc(C(=O)Oc2ccccc2/C=N/Nc2ccc([N+](=O)[O-])cc2)c1` is listed as 9.5 | · | · | 12 | -3 | 4% | ·
`CCN1CCN(C(=O)c2cc3sccc3n2CC(=O)c2ccccc2)CC1` is listed as -0.5 | -2.3 | 0.2 | -13 | -9 | 29% | -23
`COc1ccc(C(=O)N2CCn3c2nc2ccccc23)cc1` is listed as 3.6 | -4.1 | -3.1 | -11 | -7 | -2% | 2
`O=C1CN(C(=O)CSc2nc3ccccc3c(=O)n2CCCN2CCOCC2)c2ccccc2N1` is listed as 3.1 | -3.1 | -1.8 | -6 | -6 | 0% | 3
`CC(Oc1ccc(F)cc1)C(=O)Nc1cc(S(=O)(=O)N2CCOCC2)ccc1N1CCCCC1` (stereo not given) is listed as 0.3 | 0.8 | 5.4 | -1 | -55 | 1% | -5

Next records.
SMILES	HNF4A DNA FP	LANA-H2B inh	RanGTP-Impb inh	Beta2AR agonist	ALR H2O2 inh	Vif A3G	Calb FLC
Clc1ccc(-n2ncc3c(NCCN4CCOCC4)ncnc32)cc1	-2.4	-4.3	0.4	4	17	-1%&2%	9
CC(C)[C@H](NC(=O)c1c(F)cccc1F)C(=O)N1CCN(c2ccc(F)cc2)CC1	2.1	-1.6	4.5	7	10	7%	-10
O=C(CSc1ccc2ccccc2n1)Nc1ccc(N2CCOCC2)cc1	-0.1	-1.5	2.1	1	2	-3%	-23
Cc1ccccc1NC(=O)c1ccccc1NC(=O)CCC(=O)O	-0.5	1.9	-0.4	-5	-4	?	14
CC1=Nc2ccccc2/C1=C/c1sc(=N)n(-c2nccs2)c1O	36	1.1	23*	-238	·	7%	-2
Cc1csc(=O)n1CCC(=O)OCC(=O)c1c(N)n(CC(C)C)c(=O)n(C)c1=O	9.1	-5.1	-1.7	-1	-3	-13%	4
Cc1ccc(CNC(=O)CCCc2ccccc2)cc1	-1.5	4.1	-5.4	-3	-1	19%	-8
CCC(=O)C1CCCN(C(=O)c2ccc3nc(-c4cccc(OC)c4)oc3c2)C1 (stereo not given)	1.2	0.0	2.0	5	5	·	18
COc1ccccc1NC(=O)CSc1nnc(Cn2nnc(-c3ccccc3)n2)n1-c1ccccc1	3.1	3.1	-1.7	3	-1	6%	10
Cc1nc2c(sc(=S)n2Cc2ccco2)c(=O)n1CC(=O)Nc1ccccc1F	5.4	5.6	2.6	-3	1	·	-2
Cc1oc(C(C)(C)C)cc1C(=O)Nc1cccc(/C=C\C(=O)O)c1	-1.7	4.3	1.8	-24	·	3%	-2
O=C(c1ccc(-c2ccc([N+](=O)[O-])cc2)o1)N1CCN(S(=O)(=O)c2cccs2)CC1	4.6	1.1	·	25	22	·	·
CCC(C(=O)OCC(=O)NC(=O)NC(C)(C)C)c1ccccc1 (stereo not given)	-0.6	-2.2	1.7	-1	-2	-2%	16
Cc1cc2cc(CN(Cc3cccs3)C(c3nnnn3C(C)(C)C)C(C)C)c3nnnn3c2cc1C (stereo not given)	5.7	·	5.6	2	·	1%	0
CCc1ccc(CN2CCCC(CNS(=O)(=O)c3ccc(OC)cc3)C2)cc1 (stereo not given)	-0.1	0.7	-1.5	4	-2	15%	-22
Cc1ccc(C2=NC(C)(C)N=C2SCC(=O)Nc2ccc(Cl)cc2)cc1	1.9	3.6	-2.0	-4	·	2%	16
O=C(CCc1nnc(CCc2ccccc2)o1)N1CCCC1c1nccs1 (stereo not given)	-2.4	1.5	-1.8	3	-4	1%	6
O=C1NC(c2ccccc2)Oc2ccccc21 (stereo not given)	2.2	-2.2	-2.4	1	-13	·	-2
C=CCNc1sc(C(=O)c2ccc(C)cc2)c(N)c1C#N	5.0	7.5	24	0	-6	30%	12
CC(C)C[C@H](NC(=O)N1CCn2c1nc1ccccc12)C(=O)N1CCCCC1	16	-0.4	-2.3	-2	0	-1%	-4
CC(=O)c1ccc(N(C(=O)Cn2nnc3ccccc32)C(C(=O)NCc2ccccc2)c2ccccn2)cc1 (stereo not given)	1.2	-7.7	4.3	9	4	-3%	-10
CC(Cn1cncn1)C(=O)N1CCN(S(=O)(=O)c2ccccc2)CC1 (stereo not given)	-0.9	-1.2	5.3	-7	20	·	-5
CC(=O)c1cc2ccc(O)cc2oc1=O	-4.1	7.3	148*	-1	·	·	1
Cc1ccc(-c2csc3nc[nH]c(=S)c23)cc1C	2.7	0.9	-2.9	21	2	-3%	-6

Just Beta2AR agonist and ALR H2O2 inh, for two of the compounds above:
Structure	Beta2AR agonist	ALR H2O2 inh
O=C(CCc1nnc(CCc2ccccc2)o1)N1CCCC1c1nccs1 (stereo not given)	3	-4
O=C1NC(c2ccccc2)Oc2ccccc21 (stereo not given)	1	-13

(further entries)
SMILES	HNF4A DNA FP	LANA-H2B inh	RanGTP-Impb inh	Beta2AR agonist	ALR H2O2 inh	Vif A3G	Calb FLC
Cc1ccc2c(c1)N(CC(=O)O)C(=O)CO2	8.6	-0.9	1.0	10	-5	4%	12
O=C(/C=C/c1ccccc1)N1CCN(Cc2nc3ccccc3c(=O)[nH]2)CC1	-2.4	-0.4	-3.2	2	-7	12%	-9
O=C(COC(=O)/C=C/c1ccc(F)cc1)Nc1ccc(Cl)cn1	1.3	1.6	0.3	3	-10	-3%	6
COc1cccc(-c2cc(C(F)(F)F)nc(-n3cncn3)n2)c1	1.1	-2.8	?	-7	-1	-2%	0
c1csc(-c2ccn[nH]2)c1	-2.0	-4.2	5.3	-2	-1	3%	-18
COC(=O)c1ccccc1NC(=O)Nc1ccc(C)cn1	-0.3	-2.2	5.8	-6	2	·	-1
O=C1C(c2ccnc3ccccc23)=C(O)c2ccccc21	2.5	3.9	3.6	-1	-10	-8%	7
Cc1ccc(C(=O)OCC(=O)NC2CCCC2)cc1	0.8	1.0	-0.8	-4	·	-7%	-7
O=C(Oc1cccc2c(=O)[nH]ccc12)c1ccccc1	-3.9	4.5	·	-2	·	29%	·
COc1ccc(-c2nc(-c3ccccc3)c(-c3cccs3)[nH]2)cc1OC	5.2	-5.9	-46	12	12	-1%	14
COc1ccc(/C=C/C(=O)O)cc1S(=O)(=O)N1CCC(C)CC1	-1.1	0.0	-2.5	6	-6	-10%	-4
Cc1ccsc1C(=O)Nc1nnc(-c2ccco2)o1	-1.9	1.0	0.7	2	33	0%	69
COc1ccc(CCN2C(=O)C(O)=C(C(C)=O)C2c2ccccc2OC)cc1OC (stereo not given)	0.5	-3.4	-4.3	-4	-10	4%	17

Screening results (PubChem)
